Screens deposited in PubChem BioAssay by several laboratories.
ALR inh: human ALR oxidase inhibition via reduced H2O2; inhibition, % (test concentration not listed); 3.8% of 290,000 active; purified ALR, DTT oxidation, H2O2 HRP-luminol luminescence; P55789;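 active means mean and each replicate at 75% or more; inconclusive means only one of the two met; inactive means neither met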;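 further: stock transfer was 7.5 nL into about 7.5 µL; 0% = neutral wells and 100% = wells with inactivated enzyme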
rRNA inh HTS: selective bacterial rRNA inhibition in E. coli. E. coli WT GFP vs humanized-ribosome RFP mutants, fluorescence, 24 h; active compounds read low; DMSO median 0, no signal -100. AID 720706. 1.6% of 350,000 active. GFP signal change (wild-type ribosome), % (concentration not given with the values);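 active means significant combined selectivity score with lowered wild-type GFP, culture density cut under 30%, mutant RFP and density less affected; inactive means any of these conditions unmet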; further: one replicate is shown; some compounds called inactive have numbers as strong as hits
Vif TR-FRET: HIV-1 Vif–A3G interaction blockers – biochemical, TR-FRET, GST-Vif 1-94, biotin-A3G peptide, dose response retest, primary screen (AID 1117319); inhibition, %; hits with a dose series show IC50 in µM; 0.57% of 260,000 active; TR-FRET GST-Vif / biotin-A3G peptide binding; higher % means a stronger effect; test concentration not given here; strong numbers were not always called active;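 active means above the screen mean plus three standard deviations and confirmed in dose response; inconclusive means results disagree or hit not tested in dose response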;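 further: Vif residues 1-94 fused to GST binding biotinylated APOBEC3G peptide 110-148; 0% = full assay without inhibitor and 100% = GST in place of GST-Vif; retest series ran down from 100 µM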
HNF4A DNA FP: change in binding of human HNF4 alpha to DNA; P41235; HNF4a-FITC DNA binding, fluorescence polarization, 1 h; activity change, % at 10 µM; 0.3% of 360,000 active; in the data active means activity change above about 30%, passing the limit was not always enough;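 further: controls were the assay level and a saturating level of protein; the project sought stronger binding though the title names inhibitors; some compounds called inactive have numbers as strong as hits; positive values seem to mean higher polarization but the record does not say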
Target sequence (P41235 whole entry, looked up): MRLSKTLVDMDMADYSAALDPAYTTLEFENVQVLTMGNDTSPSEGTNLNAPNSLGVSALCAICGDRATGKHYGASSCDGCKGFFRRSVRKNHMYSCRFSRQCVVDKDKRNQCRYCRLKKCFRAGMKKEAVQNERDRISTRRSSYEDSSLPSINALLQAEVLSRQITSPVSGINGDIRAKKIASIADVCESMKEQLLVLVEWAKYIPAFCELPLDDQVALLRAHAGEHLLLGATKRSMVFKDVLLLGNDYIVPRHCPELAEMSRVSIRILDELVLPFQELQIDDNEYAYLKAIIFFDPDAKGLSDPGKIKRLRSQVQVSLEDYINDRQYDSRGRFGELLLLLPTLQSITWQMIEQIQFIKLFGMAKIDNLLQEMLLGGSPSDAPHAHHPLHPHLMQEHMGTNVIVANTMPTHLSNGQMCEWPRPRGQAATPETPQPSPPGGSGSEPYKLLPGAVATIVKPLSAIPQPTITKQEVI
E coli growth: E. coli growth inhibition. Escherichia coli growth, OD600, 23 h; active compounds read low. OD600 absorbance (no concentration beside the values). 0.21% of 330,000 active. AID 1053175;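 active means OD600 absorbance below the run mean of sample wells minus 3.6 SD, in any replicate, cut at about 0.56 in these data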;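 further: stock transfer was 300 nL into about 60 µL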
MLL AF4-AF9 inh: blocks AF4 peptide binding to human AF9; P42568; 0.47% of 350,000 active; inhibition, % at 10 µM; AlphaScreen, biotin-AF4 peptide binding to FLAG-AF9;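 active means every replicate reaching a set inhibition limit, whatever the replicate mean, cut at about 25% in these data; inconclusive means mean inhibition reaches that limit but some replicates miss it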;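 further: 0% = plate neutral control median and 100% = total signal loss; the record names both 10 and 1 µM as test concentration; the first replicate is given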
Target sequence (P42568 whole entry, looked up): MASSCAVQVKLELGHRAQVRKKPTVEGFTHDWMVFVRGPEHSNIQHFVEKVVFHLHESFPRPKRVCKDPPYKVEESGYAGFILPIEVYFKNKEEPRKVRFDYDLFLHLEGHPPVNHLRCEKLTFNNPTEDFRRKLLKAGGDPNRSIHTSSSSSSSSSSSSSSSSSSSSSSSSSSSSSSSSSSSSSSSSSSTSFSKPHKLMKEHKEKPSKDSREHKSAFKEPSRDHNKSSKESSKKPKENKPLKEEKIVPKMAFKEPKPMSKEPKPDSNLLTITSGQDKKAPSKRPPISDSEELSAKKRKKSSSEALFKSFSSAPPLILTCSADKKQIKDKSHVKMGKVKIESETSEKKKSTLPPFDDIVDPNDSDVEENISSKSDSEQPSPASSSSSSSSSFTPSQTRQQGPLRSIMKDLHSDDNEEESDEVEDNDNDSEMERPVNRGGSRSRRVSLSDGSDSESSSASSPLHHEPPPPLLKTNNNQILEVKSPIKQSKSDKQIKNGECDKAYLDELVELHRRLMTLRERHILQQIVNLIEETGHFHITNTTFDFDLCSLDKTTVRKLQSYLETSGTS
FGF22 binding: shifts melting point of recombinant human FGF22 | Q9HCT0 | calls only at 9.99 µM | AID 651658 | 1.5% of 340,000 active | recombinant FGF22 thermal shift, SYPRO orange fluorescence; percent of sucrose octasulfate shift, DMSO zero;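 active means melting point raised past a set limit in the mean and every replicate; inconclusive means no clear call; three in four hits are not shown here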
rRNA inh HTS OD600: also measured in rRNA inh HTS; calls as there; OD600 change, %; measured here: OD600 growth;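 optical density of the mix in the first replicate; 0 = DMSO median and -100 = no signal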
rRNA inh HTS RFP: second read-out of rRNA inh HTS, no call of its own (marks repeat the call); RFP signal change, %; measured here: RFP humanized mutant strains;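 first replicate; 0 = DMSO median and -100 = no signal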
An asterisk follows results filed as active; i = inactive; ? = inconclusive; . = no result given. These rows are one share of the data; rates above refer to the full screens.

Molecule	ALR inh	rRNA inh HTS	rRNA inh HTS OD600	rRNA inh HTS RFP	Vif TR-FRET	HNF4A DNA FP	E coli growth	MLL AF4-AF9 inh	FGF22 binding
O=C(C[C@@H]1C[C@@H]2c3cc(NC(=O)c4cccnc4)ccc3O[C@@H]2[C@H](CO)O1)NCC(F)(F)F	.	2.3	9.4	-0.8	.	.	.	-2.1	i
Cc1ccnc(NS(=O)(=O)c2ccc(N=CC3=C(O)CC(C)(C)CC3=O)cc2)n1	-3.7	.	.	.	12.2%	-1.2	0.663	.	.
C[C@H](CO)N1C[C@H](C)[C@H](CN(C)S(C)(=O)=O)Oc2ncc(-c3cccc(C(F)(F)F)c3)cc2C1=O	.	-0.8	9.3	-4.1	.	.	.	-1.7	i
O=C(O)CCCCCNC(=O)c1ccccc1	-3.4	.	.	.	-13.1%	4.0	0.681	.	.
CCOC(=O)c1cnn(-c2nc3c(C)cccc3s2)c1C(F)(F)F	3.5	.	.	.	-3.8%	2.4	0.67	.	.
COc1ccc(C(=O)Nc2cccc(NC(C)=O)c2)cc1OC	-23.2	1.8	-3.7	-3.8	-2.2%	-4.5	0.649	-0.1	i
OCCC1CN(Cc2ccc3cc(Cl)ccc3n2)CCN1Cc1ccsc1 (stereo not drawn)	-10.8	-4.4	-0.6	2.4	17.5%	4.2	0.651	6.1	i
Cn1cnc(S(=O)(=O)N2CCCCN3[C@@H](CO)[C@@H](c4ccc(-c5ccccc5F)cc4)[C@@H]3C2)c1	.	3.4	1.4	-1.3	.	.	.	1.9	i
COCC#Cc1cnc2c(c1)C(=O)N([C@H](C)CO)C[C@@H](C)[C@@H](CN(C)C(=O)Cc1ccccc1)O2	.	2.5	13.6	-1.2	.	.	.	-2.6	i
O=C(CNC(=O)c1ccc(Br)o1)NC12CC3CC(CC(C3)C1)C2	-3.4	-0.1	5.0	-0.5	5.7%	0.2	0.672	1.0	i
CN(C)CCCOC(=O)CCc1ccccc1	-36.5	.	.	.	17.7%	4.0	0.744	.	.
CCOc1cccc2cc(C(=O)Nc3nccs3)c(=O)oc12	-10.0	.	.	.	-0.8%	2.5	0.802	.	.
CNC[C@@H]1Oc2ccc(NS(=O)(=O)c3c(C)noc3C)cc2CC(=O)N([C@@H](C)CO)C[C@H]1C	.	0.9	0.7	0.2	.	.	.	-1.6	i
CCN(CC)CCNC(=S)Nc1ccc2nc(N3CCOCC3)cc(C)c2c1	45.5	8.5	-4.7	-0.8	-1.9%	4.5	0.611	6.7	i
COc1ccccc1N1CCN(CC(O)c2ccc3cc[nH]c3c2)CC1 (stereo not drawn)	18.4	5.6	9.9	4.9	?	4.4	0.671	10.9	i
CCCNC(=O)C1(C)CCCN(C(=O)c2ccc3c(c2)CCO3)C1 (stereo not drawn)	.	5.1	22.4	0.9	.	1.9	.	-2.5	i
O=S(=O)(Cc1ccccc1)N1CCN(c2ccccc2)CC1	-3.7	.	.	.	-7.2%	3.2	0.753	.	.
COCC(C)n1c(SCC(=O)Nc2oc(C)c3c(C)n[nH]c(=O)c23)nc2ccccc2c1=O (stereo not drawn)	0.5	-4.0	-0.9	-0.2	.	-1.2	0.659	-2.4	i
CC1=CC=CC2=NC(=O)CC(C)(C(=O)N(CC(=O)NC3CCCC3)Cc3ccc(Cl)cc3)N12 (stereo not drawn)	-5.5	12.4	9.9	1.1	-1.5%	-0.6	0.654	-1.7	i
O=C1CSC(=Nc2ccccc2[N+](=O)[O-])N1	-9.9	-0.4	1.1	-0.9	4.6%	1.5	0.704	-1.5	i
CCNC(=O)NC(=O)C(C)Sc1ccc2c(c1)OCCO2 (stereo not drawn)	98.2*	.	.	.	0.9%	-0.7	0.736	.	.
COc1ccc(CC(=O)Nc2ccc3c(c2)OC2(CCCC2)O3)c(OC)c1	.	-1.8	-35.8	-5.9	.	1.6	.	-2.7	i
C=CCn1c(SCC(=O)N2CCN(c3ccccc3)CC2)nnc1-c1ccco1	17.6	-1.2	-0.7	-1.1	-1.5%	-2.9	0.721	.	.
CCCNC(=O)N1CC2(CCN(C(=O)C3CCCCC3)CC2)c2c([nH]c3cc(OC)ccc23)[C@@H]1CO	.	-1.9	-10.5	4.8	.	.	.	1.2	i
O=C(Nc1ccc(F)cc1)c1ccc2c(c1)S(=O)(=O)N=C1CCCCCN12	1.5	15.3	13.4	0.3	-12.0%	-5.7	0.668	1.0	i
CCC(=O)N1[C@@H]2Cn3c(ccc(-c4ccc(F)cc4)c3=O)[C@H]1[C@@H](C(=O)N(C)C)[C@@H]2CO	.	2.7	6.6	0.2	.	.	.	-1.6	i
CC1CC(=O)Nc2ccccc2N1S(=O)(=O)c1cccc(Cl)c1 (stereo not drawn)	-13.5	5.3	-2.8	-4.2	0.3%	0.2	0.681	-7.9	i
Cc1ccc2cccc(SCC(=O)NCc3ccco3)c2n1	-18.9	.	.	.	5.4%	3.9	0.663	.	.
CCCCC(=O)Nc1ccc(NC(=S)NC(=O)CCCCl)cc1OC	-23.7	.	.	.	16.3%	0.4	0.707	.	.
CN(C)/C=N/c1ncc(C(=O)OC(C)(C)C)s1	.	-4.5	2.6	-2.5	14.5%	-7.7	.	0.5	i
CC(C)Cc1nnc(NC(=O)C23CC4CC(CC(C4)C2)C3)s1	-8.3	2.9	-4.7	5.3	.	-0.4	0.686	0.1	i
C=CCOc1ccc(/C=C(\C#N)C(=O)Nc2ccccn2)cc1	2.2	7.3	2.0	-2.0	4.5%	1.2	0.688	-1.2	i
O=[N+]([O-])c1ccc(/C([O-])=C(/C(=S)NCc2ccco2)[n+]2ccccc2)cc1	46.4	7.6	6.9	1.4	24.3%	-6.0	0.665	-4.0	i
CCCc1cn(CC(C)n2c(=O)c3ccccc3n2Cc2cc(C(C)C)no2)nn1 (stereo not drawn)	.	-5.6	1.9	-0.7	.	-4.9	.	-15.4	i
CC1CCN(C(=O)COc2cccc3c2CCN(Cc2ccccc2)C3=O)CC1	-7.4	-27.6	-34.0	-3.5	-1.2%	-3.7	0.692	0.8	i
CC1(C(=O)NS(=O)(=O)c2cccc(C#N)c2)CCN1C(=O)Cc1ccc(-c2ccccc2)cc1 (stereo not drawn)	.	2.1	8.6	0.5	.	-2.4	.	-5.0	i
C/C(=N\OCc1nc2ccccc2c(=O)n1/N=C/c1cc([N+](=O)[O-])ccc1O)c1ccccc1	.	4.4	7.2	0.0	?	-5.3	.	13.2	i
CCn1c(/C=C2\C(=O)N(C(C)C)c3ccccc32)nc2ccccc2c1=O	.	-1.4	-9.2	7.9	-0.7%	2.4	0.697	23.2	i
COCc1ccc(C(=O)N2CCCC(C(=O)c3ccc(SC)cc3)C2)o1 (stereo not drawn)	1.7	-11.3	-25.3	0.5	.	2.1	0.703	-1.1	i
CCCNC(=O)C[C@@H]1CC[C@H]2[C@@H](COc3ccc(NC(=O)Nc4c(C)noc4C)cc3C(=O)N2C)O1	.	-0.4	-3.1	0.6	.	.	.	-0.6	i
O=S(=O)(c1cccc2nonc12)N1CCN(c2ccccc2F)CC1	1.6	18.4	12.4	2.0	13.0%	-4.3	0.709	0.1	i
CNC[C@@H]1OCCCC[C@H](C)Oc2ccc(NS(=O)(=O)c3cn(C)cn3)cc2C(=O)N([C@@H](C)CO)C[C@H]1C	.	9.6	5.7	-4.9	.	.	.	-8.9	i
COc1cc(OC)cc(C(=O)NC(C)c2cnn(-c3ccccc3C)c2C)c1 (stereo not drawn)	-3.2	-6.8	-4.3	-2.4	?	-2.0	0.675	-0.1	i
O=S(=O)(Nc1cnc2ccccc2c1)N1CCCCCC1	10.5	.	.	.	1.5%	9.9	0.761	.	.
CSc1ccccc1NC(=O)c1ccc2c(c1)CCN2S(C)(=O)=O	-5.9	-4.1	-3.6	-1.2	.	0.8	0.639	0.4	i
CCCCCC(=O)N1C[C@@H](O)[C@H](n2cc(C3CC3)nn2)C[C@@H]1c1ccccc1	.	-9.1	-1.8	0.9	.	1.7	.	-1.1	i
Cc1cc(=O)[nH]c(SCC(=O)O)c1C#N	0.9	.	.	.	-1.4%	1.5	0.705	.	.
CCOc1cc(N2CCOCC2)c(OCC)cc1NC(=O)CSc1cccc[n+]1[O-]	-46.1	.	.	.	?	-4.9	0.667	.	.
Cc1c(NC(=O)c2ccc(Br)s2)c(=O)n(-c2ccccc2)n1C	-2.6	12.2	5.9	0.4	3.1%	4.6	0.718	-1.2	.
COc1cc2c(cc1OC)C1=C(C#N)COCN1CC2	-51.0	.	.	.	?	-3.7	0.689	.	.
Cc1cccc(N(C(=O)c2csnn2)C(C(=O)NC2CCCCC2)c2ccccn2)c1C (stereo not drawn)	4.7	1.5	2.5	-2.5	.	-2.7	0.634	-9.9	i
CCCc1c(NC(=O)Nc2ccc(F)cc2)cnn1-c1ccc(Cl)cc1	6.1	-5.6	-0.8	-1.3	19.4%	5.1	0.648	-2.0	i
CCOC(=O)C1=C(CNCc2ccccc2Cl)NC(=O)NC1c1cccc([N+](=O)[O-])c1 (stereo not drawn)	0.0	-2.4	0.0	5.4	2.0%	0.2	0.711	2.5	i
O=C(Cn1c(NCCO)nc2ccccc21)c1ccccc1	10.9	13.8	12.2	3.7	5.8%	2.3	0.727	-0.5	i
Cc1ccc(C(CC(=O)O)NC(=O)c2ccc(S(=O)(=O)N3CC(C)OC(C)C3)cc2)cc1 (stereo not drawn)	0.6	6.8	-2.2	-4.2	.	-0.1	0.729	-1.2	i
N#CCC(=O)NCC1(c2ccccc2)CCCC1	-0.2	.	.	.	0.5%	1.2	0.753	.	.
COc1ccccc1C#Cc1ccc([C@@H]2[C@@H](CO)N3CCCCN(S(C)(=O)=O)C[C@@H]23)cc1	.	3.9	-2.1	25.2	.	.	.	-2.1	i
COc1cc(S(=O)(=O)NCC2CCCO2)ccc1Br (stereo not drawn)	-1.6	.	.	.	-1.5%	4.2	0.646	.	.
Cc1nc(C(=O)Nc2ccccc2Cl)cc2c1[nH]c1ccccc12	-1.2	.	.	.	-21.1%	0.2	0.749	-1.5	.
CCCOc1nc(C)cc(COC)c1C(N)=O	-1.2	3.4	9.1	0.6	-5.6%	2.3	0.692	0.2	i

Additional results
Molecule	ALR inh	rRNA inh HTS	rRNA inh HTS OD600	rRNA inh HTS RFP	Vif TR-FRET	HNF4A DNA FP	E coli growth	MLL AF4-AF9 inh	FGF22 binding
COC(=O)c1cc2n(n1)CCN(Cc1ccc(F)cc1)C2=O	-18.1	.	.	.	21.8%	-1.1	0.756	.	.
CCOc1ccc(C(=S)N2CCOCC2)cc1OCC	-4.9	5.9	2.4	-3.3	-3.6%	-0.8	0.705	?	i
Cc1cccc(C)c1C(O)c1ncc(-c2cccc(F)c2)[nH]1 (stereo not drawn)	.	.	.	.	.	-2.2	.	3.4	i
CCOC(=O)c1cc(-c2cc3ccccc3o2)n[nH]1	-2.2	.	.	.	-1.9%	-5.2	0.684	.	.
O=C(c1ccccc1)N1CCN(C(=O)c2cc3nc(-c4ccccc4)cc(C(F)(F)F)n3n2)CC1	2.6	-8.7	-17.8	1.6	-0.4%	2.8	0.651	6.8	i
C[C@H](NC(=O)[C@@H]1[C@@H](CO)[C@@H]2Cn3c(cccc3=O)[C@@H]2N1CC1CC1)c1ccccc1	.	-0.5	4.4	-2.2	.	.	.	0.6	i
CC(NC(=O)C(=O)c1cn(CC(=O)N2CCOCC2)c2ccccc12)c1ccccc1 (stereo not drawn)	-5.4	6.1	4.9	1.3	.	0.2	0.709	0.8	i
